Source: PubChem BioAssay (National Center for Advancing Translational Sciences (NCATS))
VDR inhibitor: inhibitors of human vitamin D receptor. P11473. VDR-SRC2-3 peptide fluorescence polarization, 2 h. Potency, µM, for the others: max response, negative = inhibition, usual class: inhibitors. 400,000 compounds, 0.93% hits. AID 504847; active = well fitted inhibition curve with a large enough effect; inconclusive = small, poorly fitted or top-dose-only effect, or another doubt; inactive = no such curve, though single readings can be large or run the other way; also: series mostly up to about 120 µM
Target sequence (P11473 whole entry, looked up): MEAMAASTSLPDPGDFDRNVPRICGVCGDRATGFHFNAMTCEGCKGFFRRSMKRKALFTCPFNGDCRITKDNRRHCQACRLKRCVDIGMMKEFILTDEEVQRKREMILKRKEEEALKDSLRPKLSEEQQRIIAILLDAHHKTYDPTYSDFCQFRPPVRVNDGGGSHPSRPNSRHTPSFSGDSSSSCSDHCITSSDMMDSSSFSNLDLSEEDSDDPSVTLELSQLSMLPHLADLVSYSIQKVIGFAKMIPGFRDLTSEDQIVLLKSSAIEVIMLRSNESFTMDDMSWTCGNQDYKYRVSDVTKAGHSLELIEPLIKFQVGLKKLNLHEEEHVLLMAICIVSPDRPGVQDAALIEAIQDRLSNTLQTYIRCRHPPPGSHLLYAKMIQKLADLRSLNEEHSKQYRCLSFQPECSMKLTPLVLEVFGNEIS
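The screen uses fluorescence polarization to detect compounds that interfere with recruitment of the SRC2-3 coactivator peptide to VDR; plates are read after 2 h at room temperature.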
Numbers without * were called inactive; u = inconclusive; & = joins results of further samples; [ ] = another dose, or the depositor's remark. % is scaled to controls: 0 for no effect and ±100 for the full control effect; potency is read from the fitted curve at half-maximal effect. These rows are one share of the data, so the mix of outcomes need not match the whole.

cpd	canonical_smiles	VDR inhibitor
1	COc1ccc(OC)c(/C=N/NC(=O)CCCC(=O)Nc2cccc(Br)c2)c1	0%
2	COc1cc(C=O)ccc1OS(=O)(=O)c1ccc(NC(C)=O)cc1	-2%
3	Cc1cccc(CSC2=NCCN2C(=O)c2ccc(Br)o2)c1	-3%
4	COc1cc2c(-c3ccc4cc[nH]c4c3)c(-c3ccsc3)oc(=O)c2cc1OC	-8%
5	Nc1nccnc1C(=O)OCC(=O)C12CC3CC(CC(C3)C1)C2	-21%
6	CCOC(=O)/C(C#N)=C/c1cccc(F)c1	0%
7	CCCC(=O)N1CCN(c2ccc(NC(=S)NC(=O)CC)cc2)CC1	10%
8	CCOC(=O)CSc1nnc(-c2cccs2)n1-c1ccccc1	-16%
9	CCc1ccc(S(=O)(=O)Nc2ccc(C)c(NS(C)(=O)=O)c2)cc1	-10%
10	CN(C(=O)c1ccccc1)C1(C)CCS(=O)(=O)C1 (centres undefined)	3%
11	Cc1ccc(CNS(=O)(=O)c2cc3c(cc2C)NC(=O)CO3)cc1	-13%&1%
12	O=C(CCN1C(=O)C2C3C=CC(C3)C2C1=O)N1CCN(c2ccc([N+](=O)[O-])cc2)CC1 (centres undefined)	-5%
13	CCc1nc(SCC(=O)Nc2ccccc2OC)n[nH]1	16%
14	C=CCn1c(SCC(=O)C(C)(C)C)nnc1-c1ccccn1	-2%
15	CN(C)C(CNC(C(=O)Nc1ccc(F)cc1)c1ccccc1)c1ccccc1 (centres undefined)	12%
16	N#Cc1nc(-c2ccccc2F)oc1N1CCN(C(=O)c2ccco2)CC1	8%
17	Cc1cccc(C(=O)N/N=C/c2ccc[nH]2)c1	u
18	c1ccc(-n2cnc3cc(NCc4ccco4)ccc32)cc1	-18%
19	Cc1noc(C)c1CSCC(=O)Nc1nc(-c2ccc(F)c(F)c2)cs1	u
20	O=[N+]([O-])c1ccccc1/C=N/n1c(C(F)(F)F)n[nH]c1=S	10%
21	CN(C)c1ccc(C(=O)Nc2cccc(-c3nc4cccnc4s3)c2)cc1	6%
22	CCOc1ccc(N(CC)C(=O)CSc2n[nH]c(-c3ccccc3)n2)cc1	3%
23	COC(=O)[C@H](CCSC)NC(=O)NCCc1ccccc1F	-1%
24	Cc1cc(C)nc(N2CCC(C(=O)NCc3cccc(C(F)(F)F)c3)CC2)n1	15%

Pulled by compound from the list above, four records:
cpd	canonical_smiles	VDR inhibitor
19	Cc1noc(C)c1CSCC(=O)Nc1nc(-c2ccc(F)c(F)c2)cs1	u
17	Cc1cccc(C(=O)N/N=C/c2ccc[nH]2)c1	u
20	O=[N+]([O-])c1ccccc1/C=N/n1c(C(F)(F)F)n[nH]c1=S	10%
22	CCOc1ccc(N(CC)C(=O)CSc2n[nH]c(-c3ccccc3)n2)cc1	3%

Additional results follow.
cpd	canonical_smiles	VDR inhibitor
25	COc1ccc(C2NC(=O)NC(C)=C2[N+](=O)[O-])cc1OC (centres undefined)	1%
26	COc1ccccc1NC(=O)c1cc(C2CC2)nc2c1c(C)nn2-c1ccc(C)cc1	3%
27	O=C1CC(C(=O)Nc2ccc(F)c(Cl)c2)N=C(N2CCCCC2)N1 (centres undefined)	-3%
28	COc1ccc(OC)c(C2C3=C(CCCC3=O)Nc3c2c(=O)n(C)c(=O)n3C)c1 (centres undefined)	-4%
29	COC(C[C@@H]1O[C@@H]1[C@@H](O)[C@H](C)OCc1ccccc1)OC	-13%
30	O=C(NCCc1c[nH]c2ccccc12)C(=O)Nc1ccccc1	-9%
31	CCNC(=O)n1nccc1C(C)Oc1ccccc1 (centres undefined)	-22%
32	CCOc1ccc(OCC)c(NC(=O)C2CCCN(S(=O)(=O)c3c(C)n[nH]c3C)C2)c1 (centres undefined)	-1%
33	CCCOC1CCCN(Cc2nc(-c3cnccn3)no2)C1 (centres undefined)	21%
34	CCN(Cc1ccccc1)C(=O)C1CCN(CC2CC=CCC2)CC1 (centres undefined)	-11%
35	COc1ccc(-n2c(=O)c(-c3ccc(F)cc3)nc3cnc(N4CCNCC4)nc32)cc1	1%
36	COc1ccc(CCn2c(=N)c(C(=O)NC3CCCC3)cc3c(=O)n4cccc(C)c4nc32)cc1	-20%
37	CCSCCOC(=O)C1=C(C)NC(=O)NC1c1cccc(OC)c1OC (centres undefined)	6%
38	CCCc1nnc(SCC(=O)Nc2cc(C)on2)n1CCOC	9%
39	CCC(=O)Nc1ccc(Cl)c(NC(=O)C(C)C)c1	-19%
40	Cc1ccccc1CCNC(=O)C1CCC(=O)N(C2CCCCCC2)C1 (centres undefined)	-11%
41	CC(C)NC(=O)COc1coc(CN2CCN(Cc3ccccc3)CC2)cc1=O	-17%
42	CCOc1ccc(C(=O)Nc2c(C(=O)c3ccc(OC)cc3)oc3ccccc23)cc1	7%
43	CCCc1cc(N2CCN(c3ccccc3F)CC2)n2cnnc2n1	9%
44	CC(C)OC(=O)c1ccc(S(N)(=O)=O)o1	-4%
45	COc1ccc(-c2nn(-c3ccccc3)cc2C(=O)Nc2ccccc2OC)cc1	-12%
46	O=c1c2c(ncn1Cc1ccccc1)nc1n2CCC1	-16%
47	COc1ccc(OC)c(C2=NOC(C(=O)Nc3cc(C)on3)C2)c1 (centres undefined)	0%
48	CCCC(=O)N1CC(=O)Nc2ccc(Cl)cc2C1c1ccccc1 (centres undefined)	-13%
49	COc1cc(-c2noc(C)c2-c2ccc(N(C)C)nc2)cc(OC)c1OC	-8%
50	COc1cc(/C=C2/C(=N)N3N=C(CC(=O)N4CCOCC4)SC3=NC2=O)ccc1OC(C)c1ccccc1 (centres undefined)	-6%
51	CCC(=O)N1c2ccccc2CC1C(=O)NCCN1CCN(c2cccc(C)c2C)CC1 (centres undefined)	21%
52	O=C1NC2(Nc3ccccc31)C(=O)Nc1ccc(Br)cc12 (centres undefined)	-16%
53	CCc1nc2ccccc2c(C(=O)OCc2nnc(-c3ccccc3)o2)c1C	-16%
54	CC(C)OCCCn1c(SCC(=O)c2ccccc2)nc2c(sc3ccccc32)c1=O	-1%
55	O=C(N1CCCCC1)N1CCN(S(=O)(=O)c2ccccc2)CC1	27%
56	Cc1nc2sccn2c(=O)c1S(=O)(=O)N1CCN(c2cccc(Cl)c2)CC1	-13%
57	COc1ccc(OC)c(N(CC(=O)NCCSC2CCCCC2)S(=O)(=O)c2ccccc2)c1	2%
58	Cc1ccc(S(=O)(=O)NCCCNS(=O)(=O)c2ccc(C)cc2)cc1	-6%
59	O=C(CSCC(=O)N1CCOCC1)Nc1nc(-c2ccccc2)cs1	1%
60	CN(C(=O)COc1ccccc1C(=O)NCc1ccccc1)C1CCS(=O)(=O)C1 (centres undefined)	-11%
61	CC(C)(C)NC(=O)CN(Cc1cccs1)C(=O)CCN1CCc2ccccc21	-1%
62	COC(=O)c1cc(C(=O)NCCN2C(=O)S/C(=C\c3cccs3)C2=O)cc([N+](=O)[O-])c1	-13%
63	CCOc1ccc(-c2nc(C)sc2CC(=O)O)cc1	1%
64	COc1ccc(C(=O)Nc2ccc(-c3n[nH]c(=S)o3)cc2)cc1OC	u
65	CC(=O)N1Cc2cc(N)ccc2Oc2ccccc21	-1%
66	Cc1ccc(/C=C/C(=O)OCC(=O)NCCN2C(=O)CSC2=O)cc1	25%
67	CCNc1ccc(C(=O)OCC(=O)N2CCCC2)cc1[N+](=O)[O-]	u
68	Cc1ccc(C(C)C)cc1S(=O)(=O)NC1CC(C)(C)NC(C)(C)C1	23%
69	CCCCN(C)C(=O)Cn1nc(-c2ccc(Cl)cc2)ccc1=O	-9%
70	COc1cc(C2C(C(C)=O)=C(O)C(=O)N2CCN2CCOCC2)ccc1O (centres undefined)	16%
71	O=C(CCCC(=O)NN=Cc1ccccc1Cl)NN=Cc1ccccc1Cl	-15%
72	COc1ccccc1C(=O)NCc1ccncc1	9%
73	Cc1ccc2cccc(OCc3ccc(F)cc3)c2n1	-6%
74	CC(=O)COc1ccccc1OC(=O)c1ccco1	-3%
75	Cc1nc(CC(C)C)cc(C(=O)N2CCCC(CNS(=O)(=O)c3cccs3)C2)n1 (centres undefined)	-5%
76	COc1ccc(N2CCN(C(c3cccs3)C(C)NC(=O)C(=O)N3CCCCC3)CC2)cc1 (centres undefined)	-4%
77	COc1ccc(N2CCN(C(CNC(=O)c3ccco3)c3ccco3)CC2)cc1 (centres undefined)	-9%
78	Cc1ccc(NC(=O)N2CCc3ccccc3C2)c(C)c1	-13%
79	Cc1ccc(-n2ncc(C#N)c2/N=C/N(C)C)cc1	10%
80	O=C(NN1C(=O)c2ccccc2C1=O)c1ccccc1[N+](=O)[O-]	-8%

(further entries)
cpd	canonical_smiles	VDR inhibitor
81	COc1ccccc1C(=O)NC(=O)COC(=O)c1cnc(C)cn1	7%
82	CCCCN1C=C(C(=O)OC)C(c2ccccc2Cl)C(C(=O)OC)=C1	-14%
83	Cc1nnc(SCc2ccc(C(=O)c3ccc(Cl)cc3)o2)n1-c1ccccc1	-8%
84	Cc1cc2cc(C(c3nnnn3Cc3ccco3)N3CCCCC3)c(=O)[nH]c2cc1C (centres undefined)	0%
85	COCCCNC(=O)C(=O)NCCCOC(C)C	37%[activator]
86	CCOC(=O)N1CCN(C(=O)C2CCN(S(=O)(=O)c3c(C)cc(C)cc3C)CC2)CC1	4%
87	CC(=O)N(c1ccc(C(F)(F)F)cc1)S(=O)(=O)c1ccc(N2C(=O)CCC2=O)cc1	11%
88	Cc1ccc(C(=O)NCCOc2cccc(C)c2)cc1	7%
89	COc1ccc(C(CNC(=O)Cc2cc(OC)c(OC)c(OC)c2)N2CCCC2)cc1 (centres undefined)	-5%
90	Cn1c(=O)c(C(=O)CSc2ccccc2)c(N)n(Cc2ccccc2)c1=O	-14%
91	Cc1nc2cccnc2n1-c1cccc(C(=O)NCCc2ccc(S(N)(=O)=O)cc2)c1	7%
92	CCOC(=O)Nc1c(C)n(C)n(-c2ccccc2)c1=O	14%
93	CC1CN(Cc2nc3c(c(=O)[nH]c(=O)n3C)n2CCN2CCOCC2)CC(C)O1 (centres undefined)	4%
94	CCc1nnc(NC(=O)C2CCN(c3ncnc4sc(C)c(C)c34)CC2)s1	18%
95	COc1ccc(Cc2nnc(NS(=O)(=O)c3ccccc3)s2)cc1	6%
96	O=C(NC(Cc1cccc(F)c1)C(=O)O)C1CCCCC1 (centres undefined)	-7%
97	O=C(CNc1cccc(S(=O)(=O)N2CCCC2)c1)Nc1cccc(C(F)(F)F)c1	-6%
98	C[C@H]1CN([C@@H](C)CO)C(=O)Cc2cc(NC(=O)Cc3ccccc3)ccc2O[C@H]1CN(C)C(=O)Nc1cccc2ccccc12	15%
99	COc1ccc(C2N=C(N)Nc3nc4ccccc4n32)c(OC)c1OC (centres undefined)	10%
100	Cc1c(NC(=O)C2CCN(S(=O)(=O)c3ccccc3)CC2)c(=O)n(-c2ccccc2)n1C	-19%
101	CN(C)c1ccc(CNC(=O)CN(C)S(=O)(=O)c2cccc3cccnc23)cc1	-2%
102	COC(=O)C1=CN(c2ccc(OC)cc2)C=C(C(=O)OC)C1c1cccc(F)c1	-3%
103	Cc1ccc2c(c1)N(C(=O)CCC(=O)NCc1cccc(F)c1)CC(C)O2 (centres undefined)	2%
104	COC(=O)c1c(C)[nH]c(C(=O)CN2C(=O)C3CC=CCC3C2=O)c1C (centres undefined)	0%
105	O=C(NCC(c1cccnc1)N1CCOCC1)Nc1ccccc1 (centres undefined)	-5%
106	CCC1CN(C(=O)Nc2ccc(C)c(F)c2)c2ccccc2S1 (centres undefined)	11%
107	COC(=O)c1ccc(CSc2nc3c([nH]c4ccccc43)c(=O)n2-c2cc(C)cc(C)c2)o1	-3%
108	COc1ccc(C2=NOC(CNC(N)=S)C2)cc1 (centres undefined)	-12%
109	Cn1c(=O)c(-c2ccccc2)nc2cnc(OCc3ccccc3)nc21	-16%
110	COc1ccc(C2CC(=O)c3cnc(NC(=O)c4ccccc4)nc3C2)cc1OC (centres undefined)	-7%
111	CCNc1ccc(-c2nc(-c3ccccn3)no2)cc1[N+](=O)[O-]	12%
112	COc1cc(OC)c(OC)cc1CNC(=O)c1cccc(S(=O)(=O)N2CCc3ccccc3C2)c1	-19%

Continued, overlapping the part above by 3 compounds.
cpd	canonical_smiles	VDR inhibitor
110	COc1ccc(C2CC(=O)c3cnc(NC(=O)c4ccccc4)nc3C2)cc1OC (centres undefined)	-7%
111	CCNc1ccc(-c2nc(-c3ccccn3)no2)cc1[N+](=O)[O-]	12%
112	COc1cc(OC)c(OC)cc1CNC(=O)c1cccc(S(=O)(=O)N2CCc3ccccc3C2)c1	-19%
113	FC(F)(F)c1ccc(-c2noc(CN3CCCN(C4CCCCC4)CC3)n2)cc1	-13%
114	O=C(Cc1ccc(Cl)cc1)NCCS(=O)(=O)N1CCN(c2ccccc2F)CC1	-19%
115	COc1ccccc1NC(=O)CSc1nn2c(=O)c(C)nnc2s1	-2%
116	COc1cc(OC)c2c(=O)c(OC)c(-c3ccc(OC)c(OC)c3)oc2c1	-6%&8%
117	CCOC(=O)/C(C#N)=C/Nc1ccsc1C(=O)OC	-3%
118	O=C(NC1CCCC1)C(c1cccs1)N(C(=O)c1ccco1)c1ccc2c(c1)OCCO2 (centres undefined)	4%
119	COc1c(C)cc(C(=O)C2CCCN(C(=O)c3snnc3C)C2)cc1C (centres undefined)	-1%
120	COc1cc(C)cc2oc(=O)c(CC(=O)N3CCN(C(=O)C4COc5ccccc5O4)CC3)c(C)c12 (centres undefined)	-9%
121	CCc1nnc(SCc2nc(-c3ccccc3Cl)oc2C)c2cc3sc(C)cc3n12	19%
122	Cc1cc2cc(CCNC(=O)c3ccc(S(=O)(=O)N4CCOCC4)cc3)c(=O)[nH]c2cc1C	11%
123	O=C(Nc1ccccc1Br)C1CC(=O)N(c2ccc3c4c(cccc24)CC3)C1 (centres undefined)	4%
124	O=C(COC(=O)c1ccccc1)Nc1ccccc1N1CCOCC1	-9%
125	Fc1ccc(-c2nnc(CSc3nnc(-c4cccs4)o3)o2)cc1	11%
126	CCCCOc1ccc(C2(C)CC(=O)NC2=O)cc1 (centres undefined)	8%
